UUG fidelity – modulators of yeast start codon fidelity, primary screen, whole organism, S. cerevisiae, single point, plate reader; S. cerevisiae UUG-firefly luciferase reporter, luminescence/redox ratio; activity score, % at 18.7 µM; hit rate 0.13% among 350,000;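 active = replicate mean at a twofold rise or more, about +100% in these data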;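 also: firefly luciferase made from a UUG start codon reports start codon fidelity; reporter light over untreated wells divided by growth signal over untreated wells; some hits fall short of that in this replicate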
Rce1 inh – yeast Rce1p protease inhibitors, primary screen, biochemical, fluorescence, cell-free homogeneous | yeast membranes, quenched prenylated peptide cleavage fluorescence | AID 2563, 2010 | CAAX prenyl protease 2 (Saccharomyces cerevisiae (strain ATCC 204508 / S288c)), Q03530 | hit rate 0.27% among 290,000 | calls only;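 active = fall in fluorescence gain of 50% or more versus controls, with final raw signal at or below 3038400; inconclusive = same 50% fall but final raw signal above 3038400; inactive = fall in fluorescence gain under 50%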;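 also: plate controls were neutral control wells for no effect and wells lacking membranes for full effect; tested at 10 µM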
Target sequence (Q03530 whole entry, looked up): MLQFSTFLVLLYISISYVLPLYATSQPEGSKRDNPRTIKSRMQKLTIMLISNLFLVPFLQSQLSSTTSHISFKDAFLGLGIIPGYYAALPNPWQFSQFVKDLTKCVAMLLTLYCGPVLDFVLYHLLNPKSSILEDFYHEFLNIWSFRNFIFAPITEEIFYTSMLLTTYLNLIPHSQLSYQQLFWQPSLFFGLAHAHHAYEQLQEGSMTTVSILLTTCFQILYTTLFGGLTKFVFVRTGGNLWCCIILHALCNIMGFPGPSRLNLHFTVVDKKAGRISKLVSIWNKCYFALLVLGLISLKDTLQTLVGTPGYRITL
CSC inhib – cancer stem cell viability inhibitors, primary screen, luminescence | inhibition, % at 7.5 µM | cancer stem cell-like cells viability | hit rate 1.1% among 300,000 | AID 2717, 2010;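 active = mean at 75% or more and at least half the replicates too; inconclusive = mean and replicates disagree; tested in HMLE shEcad cells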;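 also: 0% = median of negative and 100% = median of positive control wells; the first replicate is given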
PABP FP inh – PABP poly(A) RNA binding inhibitors, primary screen, biochemical, fluorescence polarization, uHTS. Polyadenylate-binding protein 1 (Homo sapiens), P11940. inhibition, % at 35 µM. hit rate 1% among 290,000. AID 2014, 2009;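 active = 50% or more with normal probe brightness, or confirmed in later tests; inconclusive = above 50% with abnormal brightness, or retests that disagree; inactive = below 50% or failed in later tests; about a fifth of its hits are not listed in these tables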;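 also: calls also rest on retests at 20 µM and on dose response follow-up; controls were probe without protein and protein plus probe with vehicle; some compounds called inactive have numbers as strong as hits; many hits fall short of the cut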
Target sequence (P11940 whole entry, looked up): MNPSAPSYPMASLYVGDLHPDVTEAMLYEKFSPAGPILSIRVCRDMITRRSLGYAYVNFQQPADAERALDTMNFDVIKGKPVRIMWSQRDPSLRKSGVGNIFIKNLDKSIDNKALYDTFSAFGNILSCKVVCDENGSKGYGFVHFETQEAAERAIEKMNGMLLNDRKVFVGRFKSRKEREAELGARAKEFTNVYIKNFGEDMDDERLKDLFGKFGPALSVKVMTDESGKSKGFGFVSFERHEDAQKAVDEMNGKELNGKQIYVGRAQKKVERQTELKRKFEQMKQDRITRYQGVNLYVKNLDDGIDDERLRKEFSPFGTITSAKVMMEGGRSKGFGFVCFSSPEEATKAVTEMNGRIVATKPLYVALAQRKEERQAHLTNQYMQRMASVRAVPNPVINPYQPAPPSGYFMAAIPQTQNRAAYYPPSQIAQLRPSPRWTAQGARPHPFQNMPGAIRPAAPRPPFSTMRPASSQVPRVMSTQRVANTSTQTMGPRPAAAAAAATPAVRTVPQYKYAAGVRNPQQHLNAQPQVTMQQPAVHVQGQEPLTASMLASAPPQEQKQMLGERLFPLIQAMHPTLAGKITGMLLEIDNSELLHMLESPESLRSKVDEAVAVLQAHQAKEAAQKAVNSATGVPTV
eIF4H inh – human eIF4H binding inhibitors, primary screen, translation initiation inhibitor project, biochemical, uHTS, fluorescence polarization. AID 2012, 2009. Eukaryotic translation initiation factor 4H (Homo sapiens), Q15056. eIF4H fluorescence polarization binding assay. hit rate 0.94% among 290,000. inhibition, % at 35 µM;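 active = 50% or more with normal probe brightness, or confirmed in later tests; inconclusive = above 50% with abnormal brightness, or retests that disagree; inactive = below 50% or failed in later tests; about a fifth of its hits are not listed in these tables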;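 also: calls also rest on retests at 20 µM and on dose response follow-up; 0% = protein and probe with vehicle and 100% = probe without protein; strong numbers were not always called active; many hits fall short of the cut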
Env fusion inh – inhibitors of HIV-1 Env-driven cell-cell fusion, primary screen, HeLa-JRFL effector, CEM21 target cells, luciferase; inhibition, % at 12.3 µM; hit rate 1.1% among 360,000;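 active = mean replicate inhibition score of at least 50 and every replicate individually at or above 50; inconclusive = only one of the two criteria met; inactive = mean below 50 and not all replicates reaching 50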;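 also: 0% = plate neutral controls and 100% = maraviroc near 300 nM; one replicate is shown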
MT1-MMP act inh – blockers of MT1-MMP proenzyme processing, primary screen, HT1080 RFP-PRO-GFP cells, GFP/RFP fluorescence | GFP/RFP ratio fluorescence, overnight; percent of plate control window, DMSO zero | hit rate 0.061% among 360,000 | GFP/RFP ratio change, % at 20 µM | AID 651647, 2012;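 active = GFP/RFP ratio change of at least 30% with cell ATP level not reduced by more than half and red fluorescence within 50% of control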; also: strong numbers were not always called active
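Test system: HT1080 cells expressing an RFP-PRO-GFP fluorescent reporter construct / Compound dosing: single-point 20 µM compound, 1% DMSO / Schedule: cells overnight before dosing, compound overnight, 37 °C, 5% CO2 / Evaluation: GFP/RFP fluorescence ratio / Control set: DMSO and RFP-L50D-GFP cell wells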
MT1-MMP act inh RFP – recorded beside MT1-MMP act inh, whose call it bears; RFP signal change, %; measured here: RFP expression control read;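 0 = vehicle wells; hits needed this value within 50% of zero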
The depositor's hits bear a star. A portion of the library; rates above refer to the full screens.

For Cc1csc(=O)n1CCC(=O)OCC(=O)N(CC(C)C)c1c(N)n(Cc2ccccc2)c(=O)[nH]c1=O the results were UUG fidelity 14, Rce1 inh inactive, CSC inhib 1, PABP FP inh -5, eIF4H inh 2, Env fusion inh -153, MT1-MMP act inh -5 and MT1-MMP act inh RFP 3.
For COc1cccc(O)c1CN1CCC(Oc2ccc(C(=O)NCc3ccccn3)cc2)CC1 the results were UUG fidelity -11, Rce1 inh inactive, CSC inhib 7, PABP FP inh -14, eIF4H inh -10, Env fusion inh 0, MT1-MMP act inh -1 and MT1-MMP act inh RFP -1.
NC(=O)c1ccc(Oc2ccc3ccc(=O)oc3c2)c([N+](=O)[O-])c1 was read as Rce1 inh inactive, CSC inhib -7, PABP FP inh inconclusive, eIF4H inh 34, Env fusion inh 14, MT1-MMP act inh 2 and MT1-MMP act inh RFP 3.
C/C(=N\Nc1ccc(Cl)c(C(=O)O)c1)c1ccccn1 was read as Rce1 inh inactive, CSC inhib -10, PABP FP inh 10, eIF4H inh 8, Env fusion inh 7, MT1-MMP act inh 8 and MT1-MMP act inh RFP 10.
`CCc1c(C)nc2ncnn2c1N1CCN(S(=O)(=O)c2ccc(OC)cc2)CC1` gave Rce1 inh inactive, CSC inhib -4, PABP FP inh -2, eIF4H inh -4, Env fusion inh 40, MT1-MMP act inh 3 and MT1-MMP act inh RFP -23.
For CSc1ccccc1NC(=O)c1ccc(N2CC3CC(C2)c2cccc(=O)n2C3)c(NC(=O)c2cccnc2)c1 (stereo not drawn) the results were UUG fidelity -5, Rce1 inh inactive, CSC inhib -8, PABP FP inh 9, eIF4H inh -12, Env fusion inh -2, MT1-MMP act inh 1 and MT1-MMP act inh RFP 1.
COc1c(Cl)cc(Cl)cc1/C=N/n1cnnc1 was read as UUG fidelity -18, Rce1 inh inactive, CSC inhib -5, PABP FP inh -5, eIF4H inh -5, Env fusion inh -123, MT1-MMP act inh -5 and MT1-MMP act inh RFP -3.
Cc1ccnc(NC(=O)CCC(=O)N(CC(=O)NCc2ccccc2)Cc2ccccc2)c1 was read as UUG fidelity -1, Rce1 inh inactive, CSC inhib -9, PABP FP inh 1, eIF4H inh -21, Env fusion inh -2, MT1-MMP act inh -4 and MT1-MMP act inh RFP -1.
For COc1cc2c(cc1OC)C(Nc1ccc(S(N)(=O)=O)cc1)=NC(C)(C)C2 the results were Rce1 inh inactive, CSC inhib -2, PABP FP inh -1, eIF4H inh 8, MT1-MMP act inh 2 and MT1-MMP act inh RFP 3.
For O=C(NCCc1ccccn1)c1n[nH]c(=O)c2ccccc12 the results were UUG fidelity -18, Rce1 inh inactive, CSC inhib -4, PABP FP inh 0, eIF4H inh -7, Env fusion inh -12, MT1-MMP act inh 4 and MT1-MMP act inh RFP 2.
For COc1cc(Cl)cc(CN2CCC(CCC(=O)NC3CC3)CC2)c1OC the results were UUG fidelity -11, Rce1 inh inactive, CSC inhib -10, PABP FP inh 5, eIF4H inh -4, Env fusion inh -8, MT1-MMP act inh -1 and MT1-MMP act inh RFP 3.
For CC1=C(C(=O)OCc2ccccc2)C(c2cccnc2)n2nnnc2N1 (stereo not drawn) the results were UUG fidelity -13, Rce1 inh inactive, PABP FP inh 0, eIF4H inh -17, MT1-MMP act inh 0 and MT1-MMP act inh RFP -5.
`O=C(O)C1C2C=CC(C2)C1C(=O)Nc1cccc(Cl)c1` (stereo not drawn) gave UUG fidelity -8, Rce1 inh inactive, CSC inhib -4, PABP FP inh -8, eIF4H inh -6, Env fusion inh -6, MT1-MMP act inh 2 and MT1-MMP act inh RFP 3.
For Cc1ccc(C2C(C(=O)c3cc4ccccc4o3)=C(O)C(=O)N2CCN2CCOCC2)cc1 (stereo not drawn) the results were UUG fidelity -27, Rce1 inh inactive, CSC inhib -5, PABP FP inh 9, eIF4H inh -1, Env fusion inh -7, MT1-MMP act inh -4 and MT1-MMP act inh RFP 3.
For COc1ccc(OC)c(NC(=O)C(=O)N/N=C/c2ccccc2[N+](=O)[O-])c1 the results were UUG fidelity -24, Rce1 inh inactive, CSC inhib -9, PABP FP inh -1, eIF4H inh -2, MT1-MMP act inh 6 and MT1-MMP act inh RFP -1.
`CCN(CC)C(=O)CSc1nnc(-c2cccnc2)n1CCc1ccccc1` gave UUG fidelity -3, Rce1 inh inactive, CSC inhib 3, PABP FP inh -3, eIF4H inh -3, Env fusion inh -12, MT1-MMP act inh 2 and MT1-MMP act inh RFP 2.
`CCOC(=O)COc1ccc(S(=O)(=O)c2ccc(OCC(=O)OCC)cc2)cc1` gave UUG fidelity -9, Rce1 inh inactive, CSC inhib -9, PABP FP inh -2, eIF4H inh -6, MT1-MMP act inh 4 and MT1-MMP act inh RFP 2.
`CC(Sc1nc2ccc(Br)cc2[nH]1)C(=O)O` (stereo not drawn) gave UUG fidelity -3, Rce1 inh inactive, CSC inhib -3, PABP FP inh 3, eIF4H inh -8, Env fusion inh -14, MT1-MMP act inh -4 and MT1-MMP act inh RFP 1.
`COc1ccc(OC)c(S(=O)(=O)NCc2ccc(N3CCN(C)CC3)cc2)c1` gave UUG fidelity -13, Rce1 inh inactive, CSC inhib -13, PABP FP inh 0, eIF4H inh 5, Env fusion inh -3, MT1-MMP act inh -1 and MT1-MMP act inh RFP 0.
`CCCOC(=O)c1ccc(Oc2cn[nH]c2-c2ccc(OCC)cc2O)cc1` gave UUG fidelity -26, Rce1 inh inactive, CSC inhib -7, PABP FP inh -8, eIF4H inh 1, Env fusion inh -49, MT1-MMP act inh -8 and MT1-MMP act inh RFP -13.
`COc1ccc(C(=O)Nc2c(N)nc(SCC(=O)c3ccccc3)[nH]c2=O)cc1` gave UUG fidelity -10, Rce1 inh inactive, CSC inhib -1, PABP FP inh 3, eIF4H inh -1, MT1-MMP act inh -1 and MT1-MMP act inh RFP 1.
`O=C(CSCc1ccc(Cl)cc1)Nc1cccc(C(=O)O)c1` gave UUG fidelity -3, Rce1 inh inactive, CSC inhib -11, PABP FP inh -5, eIF4H inh -3, Env fusion inh -32, MT1-MMP act inh -1 and MT1-MMP act inh RFP 2.
For COc1ccccc1NC(=S)NC(NC(=O)c1ccco1)C(Cl)(Cl)Cl (stereo not drawn) the results were Rce1 inh inactive, CSC inhib -4, PABP FP inh 2, eIF4H inh 1, Env fusion inh -10, MT1-MMP act inh 2 and MT1-MMP act inh RFP -1.
`COc1ccc(OCc2nc(N)nc(Nc3ccccc3OC)n2)cc1` gave UUG fidelity -4, Rce1 inh inactive, CSC inhib -7, PABP FP inh 9, eIF4H inh -2, Env fusion inh -12, MT1-MMP act inh 1 and MT1-MMP act inh RFP 1.
COC(=O)CNC(=O)C(NC(=O)OCc1ccccc1)C(C)C (stereo not drawn) was read as Rce1 inh inactive, CSC inhib -12, PABP FP inh -9, eIF4H inh 25, Env fusion inh -1, MT1-MMP act inh 1 and MT1-MMP act inh RFP 2.
CCOCC(=O)Nc1cccc(-c2nc3cccnc3s2)c1C was read as UUG fidelity 0, Rce1 inh inactive, CSC inhib -1, PABP FP inh 2, eIF4H inh -6, Env fusion inh 5, MT1-MMP act inh 4 and MT1-MMP act inh RFP 2.
Screening CC(=O)c1ccc(N=c2scc(C)n2C(C)C)cc1 returned Rce1 inh inactive, CSC inhib 1, PABP FP inh 1, eIF4H inh -2, Env fusion inh -17, MT1-MMP act inh -1 and MT1-MMP act inh RFP -3.
Screening O=C(OCc1c(Cl)cccc1Cl)c1cnccn1 returned UUG fidelity -25, Rce1 inh inactive, PABP FP inh -9, eIF4H inh 4, MT1-MMP act inh 2 and MT1-MMP act inh RFP 1.
Screening CCCSC1=C(C#N)C(c2ccc(Cl)cc2Cl)CC(=O)N1 (stereo not drawn) returned Rce1 inh inactive, CSC inhib 18, PABP FP inh 4, eIF4H inh -7, Env fusion inh 7, MT1-MMP act inh 6 and MT1-MMP act inh RFP 0.
Screening COC(=O)CSc1nnnn1-c1ccccc1 returned UUG fidelity -11, Rce1 inh inactive, CSC inhib -10, PABP FP inh -2, eIF4H inh 4, MT1-MMP act inh 1 and MT1-MMP act inh RFP 3.
CCCOc1ccc(C2NC(=S)NC(C)=C2C(=O)c2ccccc2)cc1OC (stereo not drawn) was read as UUG fidelity -24, Rce1 inh inactive, CSC inhib -13, PABP FP inh 1, eIF4H inh -4, Env fusion inh 13, MT1-MMP act inh -1 and MT1-MMP act inh RFP -6.
O=C(O)CN1C(=O)c2ccc(C(=O)c3ccccc3)cc2C1=O was read as UUG fidelity -5, Rce1 inh inactive, CSC inhib -30, PABP FP inh 4, eIF4H inh -8, Env fusion inh -46, MT1-MMP act inh -2 and MT1-MMP act inh RFP -2.
CCCN(CCC)CCCNC(=O)CN1C(=O)CSc2ccc(S(=O)(=O)N3CCOCC3)cc21 was read as Rce1 inh inactive, CSC inhib -10, PABP FP inh -5, eIF4H inh 12, Env fusion inh 5, MT1-MMP act inh 0 and MT1-MMP act inh RFP 7.
For CC(Oc1ccc([N+](=O)[O-])cc1)C(=O)NCC1CCCO1 (stereo not drawn) the results were UUG fidelity -15, Rce1 inh inactive, CSC inhib -11, PABP FP inh 3, eIF4H inh -2, Env fusion inh -63, MT1-MMP act inh -3 and MT1-MMP act inh RFP -2.
`CCNC(=S)N/N=C/c1cccc(C)c1` gave Rce1 inh inactive, CSC inhib 9, PABP FP inh 4, eIF4H inh -1, Env fusion inh -3, MT1-MMP act inh -2 and MT1-MMP act inh RFP 1.
For O=C(CSc1nc2ccccc2[nH]1)NCc1ccccc1 the results were UUG fidelity -19, Rce1 inh inactive, CSC inhib -6, PABP FP inh 2, eIF4H inh 4, Env fusion inh -25, MT1-MMP act inh -2 and MT1-MMP act inh RFP -5.
Screening Cc1ccc2cc(C)c(SCC(=O)NCC3CCCO3)nc2c1 (stereo not drawn) returned Rce1 inh inactive, CSC inhib 7, PABP FP inh -6, eIF4H inh -3, Env fusion inh 2, MT1-MMP act inh 0 and MT1-MMP act inh RFP -2.
`CCOc1ccc(C(=O)Oc2cc(C)[nH]c(=O)c2[N+](=O)[O-])cc1OCC` gave UUG fidelity -3, Rce1 inh inactive, CSC inhib -17, PABP FP inh 8, eIF4H inh -5, Env fusion inh -14, MT1-MMP act inh 0 and MT1-MMP act inh RFP 4.
`CN1CCN(C(=O)CCN2C(=O)/C(=C\c3ccc(Cl)cc3Cl)SC2=S)CC1` gave UUG fidelity -16, Rce1 inh inactive, CSC inhib 43, PABP FP inh 12, eIF4H inh -4, Env fusion inh 16, MT1-MMP act inh 10 and MT1-MMP act inh RFP 5.
Fc1ccc(NC(=S)N2CCOCC2)c(F)c1 was read as UUG fidelity -14, Rce1 inh inactive, CSC inhib -6, PABP FP inh 3, eIF4H inh -10, Env fusion inh -8, MT1-MMP act inh 3 and MT1-MMP act inh RFP 4.
Screening COc1ccccc1NC(=O)N1CCN(S(C)(=O)=O)CC1 returned UUG fidelity -9, Rce1 inh inactive, CSC inhib 14, PABP FP inh -2, eIF4H inh 1, Env fusion inh 12, MT1-MMP act inh 1 and MT1-MMP act inh RFP 4.
`COc1ccc(Cl)cc1N1C(=O)/C(=C/c2sccc2C)N=C1SCC(=O)NC1CC1` gave UUG fidelity -8, Env fusion inh -11, MT1-MMP act inh -4 and MT1-MMP act inh RFP -7.

Screens as filed in PubChem BioAssay.
